Assay outcomes: PubChem BioAssay, National Center for Advancing Translational Sciences (NCATS)
Sfp PPTase inh: Sfp phosphopantetheinyl transferase inhibition; Q9F4F7; Biochemical Sfp PPTase activity, qHTS; Potency, µM, inactives show max response, negative = inhibition, most hits filed as inhibitors; actives 3.5% (n = 310,000); AID 1490; active = well fitted inhibition curve with a large enough effect; inconclusive = small, poorly fitted or top-dose-only effect, or another doubt; inactive = no such curve, though single readings can be large or run the other way;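 note: the enzyme is Sfp with the accession as filed and its product quenches rhodamine fluorescence; potency is the fitted concentration of half-maximal effect; 0% = enzyme reaction without inhibitor and -100% = no enzyme wells; top concentration of the series not given in the record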
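Sfp 15 nM + cpd, 15 min RT; start w/ rhodamine-CoA 5 uM, BHQ-2-YbbR 12.5 uM (final); 50 mM Hepes pH 7.6, 10 mM MgCl2, 0.01% NP-40, 0.01% BSA; read 525/598 nm at 0 and 30 min.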
TRPV1 potentiator: human TRPV1 potentiation | actives 0.02% (n = 320,000) | potentiation, % at 8.33 µM | TRPV1-expressing cells, Fluo-8 calcium influx, capsaicin EC20 potentiation; host cell line not named in the record; control for the full effect not named in the record; active means potentiation above 80%; inconclusive means 30% to 80%; inactive means below 30%; note: 0% is about no effect
Target sequence (Q8NER1 whole entry, looked up): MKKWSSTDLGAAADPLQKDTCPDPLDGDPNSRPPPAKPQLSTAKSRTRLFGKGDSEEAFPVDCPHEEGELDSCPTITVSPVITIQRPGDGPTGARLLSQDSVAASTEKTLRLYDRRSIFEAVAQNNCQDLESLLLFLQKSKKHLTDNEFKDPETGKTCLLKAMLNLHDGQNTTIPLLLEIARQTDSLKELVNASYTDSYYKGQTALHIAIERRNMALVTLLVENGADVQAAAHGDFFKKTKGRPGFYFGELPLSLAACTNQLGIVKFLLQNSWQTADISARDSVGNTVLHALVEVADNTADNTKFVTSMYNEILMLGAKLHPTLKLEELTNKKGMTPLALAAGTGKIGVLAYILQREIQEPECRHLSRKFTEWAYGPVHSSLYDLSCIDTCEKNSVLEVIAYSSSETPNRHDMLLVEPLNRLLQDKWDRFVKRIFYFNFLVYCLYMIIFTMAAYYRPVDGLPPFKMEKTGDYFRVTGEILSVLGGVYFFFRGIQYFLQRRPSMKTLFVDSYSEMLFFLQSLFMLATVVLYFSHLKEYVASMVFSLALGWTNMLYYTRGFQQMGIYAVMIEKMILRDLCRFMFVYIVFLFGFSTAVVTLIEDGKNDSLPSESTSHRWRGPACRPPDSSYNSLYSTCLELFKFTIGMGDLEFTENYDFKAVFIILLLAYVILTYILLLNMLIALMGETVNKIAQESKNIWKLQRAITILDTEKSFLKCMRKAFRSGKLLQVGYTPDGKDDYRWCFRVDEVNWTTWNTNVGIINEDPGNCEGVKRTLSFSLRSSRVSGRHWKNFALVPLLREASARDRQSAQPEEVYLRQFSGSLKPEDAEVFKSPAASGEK
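TRPV1-expressing cells were cultured overnight at 35.5C and loaded with Fluo-8 calcium dye for 40 to 90 min at room temperature. After a 10 s baseline, compound was added and calcium influx was read kinetically for 3 min (ex 480/em 520 nm).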
Menin MLL FP FL: menin-MLL binding inhibition, fluorescein peptide; Fluorescence polarization, fluorescein-MLL peptide displacement from menin; FP activity change, % at 61.4 µM; 290,000 tested, under 10 active; AID 1766; inconclusive = falling polarisation curve, or a change in total fluorescence; inactive = total fluorescence flat and polarisation flat or rising; no compound was filed as active; the % refers to the polarisation; negative = inhibition;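 note: % of control where 0% means no effect; inhibitors lower the polarisation; unlabelled MLL peptide was the positive control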
PINK1 modulator: modulators of PINK1 expression | PINK1 immunofluorescence, high-content cytometry, 24 h | Potency, µM (titrated, usually from 76.6 µM), for the others: top-dose activation (PINK1 increase), hits mostly activators | actives 0.2% (n = 410,000); active = well fitted activation curve with a large enough effect; inconclusive = small, poorly fitted or top-dose-only effect; inactive = flat fitted curve, though single readings scatter; cell line not stated here;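 note: potency is the fitted concentration of half-maximal effect; % of control where 0% means no effect; nearly all actives have a fitted effect of over 65% in size; a mitochondrial uncoupler was the plate control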
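Decision-based qHTS: stable cells, 24 h exposure to five compound concentrations, CCCP as control. Fixed cells stained for PINK1 plus nuclear, mitochondrial and cell markers, cytometer read.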
TRPML1 inh: inhibitors of human TRPML1 channel; Q9GZU1; TRPML1-inducible cells, Ca2+ dye fluorescence, FDSS; active compounds read low; inhibition of EC80 agonist-evoked calcium signal; activity change, negative = inhibition, % (no concentration beside the values); actives 0.02% (n = 390,000); in the data active means activity change below about -50%; inconclusive means about -30% to -50%; inactive means above about -30%;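 note: stimulus is agonist 54-4 at its EC80 concentration; % is set by controls: 0 for no effect and ±100 for the full control effect; compound concentration not given in the record; the text of the record puts the active cut at -80%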
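Tet-induced TRPML1-DL cells loaded with Ca8 no-wash calcium dye were read kinetically on FDSS. Compound addition was followed by EC80 agonist 54-4 (4 uM final); inhibition was read over 110 s.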
TRPML1 ag: activates the human TRPML1 channel; Q9GZU1; TRPML1-expressing cells, Ca2+ dye fluorescence, FDSS; host cell line not named in the record; reference of the full effect not given here; activation, % (concentration not given with the values); actives 0.12% (n = 410,000); in the data active = activation above about 50%; inconclusive = about 30% to 50%; inactive = below about 30%; note: 0% is about no effect; the text of the record puts the active cut at 80%
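Calcium fluorescence on an FDSS kinetic reader gave the read-out. Tet-induced TRPML1-DL cells were plated overnight, dye-loaded (Ca8 with quencher, 45-90 min, room temperature, dark), then read 110 s after compound addition, and again 110 s after 4uM final 54-4 (EC80).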
ClpP mod: qHTS Assay for Activators of ClpP; AID 651965, 2013; ATP-dependent Clp protease proteolytic subunit (Bacillus subtilis (strain 168)), P80244; actives 1.9% (n = 340,000); Potency, µM (highest dose often 57.5 µM), for the others: at the top dose activity change, negative = active; purified B. subtilis ClpP, FRET peptide cleavage, 20 min; active = well fitted falling curve with a large enough effect; inconclusive = small, poorly fitted or top-dose-only effect; inactive = no such curve, though single readings can be large or run the other way; note: potency is the fitted concentration of half-maximal effect; the source files actives as falling curves though it sought activators and does not explain the sign; nearly all actives have a fitted effect of over 65% in size; many hits overshoot -100%
Target sequence (P80244 whole entry, looked up): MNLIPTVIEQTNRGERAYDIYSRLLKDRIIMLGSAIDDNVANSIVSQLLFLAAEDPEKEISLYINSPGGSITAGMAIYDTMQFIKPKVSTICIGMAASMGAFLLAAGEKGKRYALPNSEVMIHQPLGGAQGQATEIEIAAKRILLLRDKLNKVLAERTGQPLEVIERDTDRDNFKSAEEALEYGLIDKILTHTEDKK
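Buffer: 100 mM Tris/HCl pH8, 100 mM KCl, 0.05% low protease BSA, 2.5% glycerol, 0.01% Tween-20. ClpP 10 microg/mL final; 20 min RT; delta FRET normalized to ADEP and DMSO controls.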
Starred values were filed as active, the others as inactive; ? = inconclusive; . = not tested or not shown; [ ] = remark or other dose.

SMILES	Sfp PPTase inh	TRPV1 potentiator	Menin MLL FP FL	PINK1 modulator	TRPML1 inh	TRPML1 ag	ClpP mod
CCc1cccc(NC(=O)CCCN2C(=O)NC(C)(C)C2=O)c1	.	3.0	.	-0.6%	28.9	0.5	-7.4%
Cc1ccc(OCc2nnc(SCC(N)=O)n2N)cc1	22.6%	-5.6	2.9	3.4%	12.8	-0.8	0.4%
O=C(Nc1ccc2nc(-c3cccnc3)[nH]c2c1)C12CC3CC(CC(C3)C1)C2	2.1%	10.2	5.0	8.0%	-1.9	-0.3	?
CCCn1[nH]cc(SC)c(=O)c1=O	-23.3%	4.0	0.4	3.5%[38.3 µM]	3.1	2.0	-1.9%
CC(C)n1c(=O)c2ccccc2n1S(C)(=O)=O	.	.	.	2.3%	.	-0.8	-0.6%
Cc1csc(NC(=O)/C=C/c2ccco2)n1	-25.5%	-9.1	?	?	-15.4	0.3	1.2%
O=C(Nc1sc2c(c1C(=O)NC1CCCCC1)CCC2)c1ccco1	-3.7%	-6.8	5.9	26.0%[38.3 µM]	-1.9	-0.3	110.3%
O=C(CCS(=O)(=O)c1cccc2nonc12)NCCc1ccccc1	6.7%	0.7	3.3	-1.9%	-5.4	-0.7	1.0%
Cc1nc2c(C(=O)NCCC(C)C)cnn2c(C)c1Cc1c(F)cccc1Cl	.	.	.	-1.4%	6.6	-0.5	-19.3%
Cc1cc(NCc2ccccc2)nc2ccccc12	8.1%	29.2	0.3	8.8%	0.0	22.2	-6.9%
CC(=O)Nc1ccc2c(c1)N(C(C)=O)c1ccccc1CC2	-7.2%	3.4	0.0	-1.1%	-5.7	-0.1	.
c1ccc2c(c1)ncn2CCCOc1ccc2c(c1)CCC2	3.7%	-10.9	5.6	13.9%[38.3 µM]	-8.9	-0.5	-0.9%
COC(=O)c1c(NC(=O)CSc2nnc(-c3cccnc3)n2Cc2ccco2)sc(C)c1C	-6.7%	11.5	-0.6	-3.4%	3.5	1.3	-0.1%
O=C1CN(C(=O)c2ccccc2F)c2ccccc2N1	14.3%	5.0	3.4	.	15.1	-0.4	0.2%
CC(=O)c1ccc(NC(=O)CSc2cn(CC(=O)N(C(C)C)C(C)C)c3ccccc23)cc1	.	.	.	0.1%	3.0	3.0	-2.9%
CCOc1ccc(S(=O)(=O)N(C)c2ccc(OCC(=O)NCc3ccco3)cc2)cc1	10.7%	-3.4	-0.1	-1.1%	-0.7	9.9	1.4%
COc1cccc(C2c3[nH]c4ccccc4c3C[C@H]3C(=O)N(c4ccccc4C(=O)N4CCCC4C(=O)O)C(=O)N23)c1 (stereo not given in full)	11.8%	4.8	-8.3	-1.0%	.	.	-1.0%
O=C(Cn1cnc2ccccc2c1=O)Nc1ccc2c(c1)CCC2	-13.6%	4.7	2.5	-0.5%[38.3 µM]	3.3	0.3	-0.8%
Cc1cc(C)c(NC(=O)c2cc(S(=O)(=O)N3CCN(c4ccccc4F)CC3)ccc2F)c(C)c1	.	.	.	0.4%	-4.0	2.7	-3.8%
COC(=O)c1ccc(Oc2nc(Nc3ccc(C)c(C)c3)nc(N(C)C)n2)cc1	-4.6%	0.9	1.8	?	15.7	1.2	-1.1%
CCn1c2ccccc2nc2cc3c(cc21)c(Cl)c(=O)c1ccccc13	.	.	.	-1.8%	1.8	-0.7	2.6%
Cc1c(C#N)c(NC(=O)C(C)C)n(Cc2ccccc2)c1C	9.2%	-19.4	-2.4	0.7%	14.5	-0.7	1.9%
O=C(NCc1ccc2c(c1)CCN2C(=O)c1ccc(F)cc1)c1ccco1	.	.	.	0.6%	-5.1	2.4	-0.5%
O=C(Cc1ccccc1[N+](=O)[O-])NCCCN1CCOCC1	18.6%	16.3	0.9	-0.7%	-1.5	0.0	0.8%
Cc1ccc(NC(=O)c2cc(S(=O)(=O)N3CCOCC3)cn2C)cc1Cl	4.9%	-6.6	-1.2	4.2%	-9.8	0.2	14.1%
Cc1ccc(S(=O)(=O)N2CCN(C(=O)Cc3sc(C)nc3-c3ccc(F)cc3)CC2)c(C)c1	.	10.8	.	0.8%	-2.3	1.5	0.6%
CCc1ccc2oc(=O)cc(CN3CCN(Cc4ccccc4)CC3)c2c1	3.1%	-2.6	-5.2	2.4%	5.8	1.4	0.3%
Cc1cc(C(=O)COC(=O)c2ccc[nH]c2=O)c(C)n1-c1ccc(Br)cc1	-3.9%	-13.7	-1.9	2.1%	-8.9	1.8	-5.6%
COc1ccc([C@@H]2CC=C(C(=O)O)[C@H](c3ccc(Cl)cc3)N2S(=O)(=O)c2ccccc2C)cc1	.	-1.5	.	-1.9%	-9.6	-0.4	-0.7%
CCOc1ccc(NC(=O)C(C)NS(=O)(=O)c2ccc(NC(C)=O)cc2)cc1 (stereo not given)	5.0%	3.2	0.7	3.8%	?	-0.5	.
COc1cc(OC)cc(OC(=O)c2cccc(S(=O)(=O)N3CCN(C)CC3)c2)c1	.	-5.7	.	1.2%	12.7	1.7	.
O=C(NC1CCSc2ccccc21)c1c(F)cccc1Cl (stereo not given)	-3.0%	2.2	.	0.8%	-1.9	-0.8	-0.2%
CCOC(=O)c1ccccc1NS(=O)(=O)c1ccc(S(=O)(=O)N2CCCC2)cc1	1.6%	-2.5	1.2	.	0.9	10.5	-2.9%
COc1ccccc1CCNC(=O)c1cc(-c2ccncc2)nc2ccc(Br)cc12	?	0.5	0.8	-2.5%	20.0	4.3	.
CC(=O)N1CCN(C(=O)CCCNC(=O)c2ccc(Cl)cc2)CC1	.	.	.	0.0%	-1.8	-0.8	1.9%
N#Cc1nc(-c2ccco2)oc1N1CCCC1	8.7%	-6.1	2.2	-1.1%	5.6	4.6	?
Cc1ccc(SCC(=O)OC(C)C(=O)NC2CCCCC2C)c(C)c1 (stereo not given)	.	-31.7	.	-0.1%	-3.6	0.2	1.2%
COc1ccc(CC(=O)OCC(=O)c2ccc(OC)c(OC)c2)cc1	.	4.2	.	3.0%	-20.1	0.3	-4.5%
CC(C)(C)c1ccc(C(=O)NCCC(=O)NC2=NCCS2)cc1	.	-3.4	.	-1.2%	43.4	0.3	-1.9%
O=C1N[C@@H](Cc2ccccc2)COC(=O)[C@@H](Cc2ccc(F)cc2)CC/C=C/C[C@@H]1CC(=O)N(CCO)Cc1ccccc1	.	.	.	2.1%	-5.6	1.2	-2.3%
O=C(O)CC1Cc2ccccc2C1C(=O)O (stereo not given)	.	.	.	0.2%	13.6	0.2	-0.8%
NC1=NC(c2cn[nH]c2-c2cccc(F)c2)n2c(nc3ccccc32)N1 (stereo not given)	-9.0%	-3.4	1.1	3.4%	-4.7	-0.8	.
O=C(O)c1cnn(-c2nc(-c3ccc(F)cc3)cs2)c1C(F)(F)F	25.6%	-1.9	0.7	0.7%	17.4	-0.9	.
Cc1ccc(C)c(NC(=O)NNC(=O)c2cc3occc3[nH]2)c1	-4.6%	7.2	7.4	0.5%	-8.0	0.7	0.2%
CC(=O)N(/N=C1\Sc2ccccc2C1=O)c1ccccc1C	11.8%	-13.0	8.8	4.0%	14.3	1.3	0.8%
CSc1ccccc1NC(=S)Nc1cccc(C(F)(F)F)c1	-10.5%	8.6	-0.1	2.7%	17.9	1.0	-0.1%
CCOC(=O)c1[nH]c(C)c(C(=O)OC)c1C	9.0%	-4.9	2.4	-0.7%	-3.3	1.3	.
C=CCn1c(SCC(=O)N2CCOCC2)nc2sc(C)c(C)c2c1=O	21.0%	5.2	4.1	4.8%	-2.5	0.2	.
O=C(NN1CCCCC1)c1cnn2c(C(F)F)cc(-c3ccccc3)nc12	11.3%	-10.9	-4.1	4.4%	-11.9	0.9	.
CCc1ccc(S(=O)(=O)c2n[nH]n3c2nc(=O)c2ccccc23)cc1	17.1%	14.4	-0.2	-1.4%[38.3 µM]	10.8	0.0	31.6µM*
COc1ccc(NC(=O)CCN2CC(C)OC(C)C2)c(OC)c1 (stereo not given)	-11.8%	29.4	3.7	2.1%[38.3 µM]	-2.8	0.2	0.7%
CSc1cccc(NC(=O)c2cccc3cccnc23)c1	-19.3%	8.1	3.7	1.8%	22.6	1.3	.
Cc1cc(=O)[nH]c(SCC(=O)Nc2ccc(Cl)cn2)n1	15.7%	4.7	-7.0	.	-3.1	0.3	1.4%
O=C(COC(=O)/C=C/c1ccc(Cl)cc1)Nc1ccccc1-c1ccccc1	13.9%	18.0	-0.5	1.2%	18.8	1.8	-4.8%
Cc1ccc(NS(=O)(=O)c2ccc3c(c2)CC(=O)N3)cc1F	.	11.9	.	0.5%	12.2	2.1	2.7%
Cc1c(C(=O)OCC(=O)N2CC(=O)Nc3ccccc32)oc2ccc(Br)cc12	-4.9%	-8.0	2.4	5.7%	-9.7	-0.4	2.0%
OC[C@@H](O)[C@@H](O)[C@H](O)[C@H](O)CO	10.4%	-12.1	-0.7	2.7%	8.0	-0.3	1.6%
CCCC(C)NC(=O)c1ccc2[nH]c3c(c2c1)CC(C)CC3 (stereo not given)	-4.8%	-4.8	4.4	1.9%	8.1	2.6	?
Cc1ccc(CN(CC(=O)NC2CCCCC2)C(=O)c2csnn2)cc1	1.1%	-15.2	-1.4	0.4%	-8.3	0.0	.
CCCCS(=O)(=O)N1CCC(C(=O)Oc2ccc(Cl)cc2)CC1	6.0%	19.6	-0.3	1.1%	.	.	-3.4%

Remaining list, next part:
SMILES	Sfp PPTase inh	TRPV1 potentiator	Menin MLL FP FL	PINK1 modulator	TRPML1 inh	TRPML1 ag	ClpP mod
O=C1CCCC(O)=C1N=Nc1ccc(C(=O)O)cc1	-4.3%	?	-5.9	-0.7%	.	.	-1.2%
COc1cc2c(cc1OC)C(c1ccc(Br)cc1)NCC2 (stereo not given)	.	.	.	-0.3%	33.6	1.0	.
CCCCCc1nc2sc3c(c2c(=O)n1NC(=O)c1ccc([N+](=O)[O-])cc1)CC(C)(C)OC3	7.7%	-4.3	2.0	?	37.8	0.2	.
CNC(=O)c1nnc(Cc2ccc(F)cc2)o1	-0.4%	.	2.8	-0.9%	42.8	-0.6	-0.5%
CCOC(=O)c1sc(NC(=O)CSc2ncn[nH]2)c(C#N)c1C	3.5%	2.6	0.1	.	-5.2	0.4	-0.8%
CCCn1cc(S(=O)(=O)CC(=O)Nc2ccc(OCC)cc2)c2ccccc21	3.1%	6.0	2.2	-1.7%	-7.6	3.9	0.3%
